# D2 ag: human D2 receptor agonism in beta-arrestin assay; P14416; DiscoveRx PathHunter D2 beta-arrestin, luminescence, 90 min; 100% = 57 uM dopamine signal; activation, % (concentration not given with the values); hit rate 0.084% among 360,000; AID 624465; in the data active = activation above about 40%; inconclusive = about 15% to 40%; inactive = below about 15%; further: compound concentration not given in the record; the text of the record calls up to 30% inactive
#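 DiscoveRx PathHunter D2 beta-arrestin cells (2,100/well) attached overnight, then compound-stimulated 90 min at 37 C in HBSS/10 mM HEPES/0.1% Tween-20 buffer; beta-galactosidase complementation read by luminescence after 1 h at ambient temperature. Dopamine 57 uM final (EC100) as control.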
# D2 potentiator: potentiates the human D2 dopamine receptor allosterically; P14416; hit rate 0.23% among 360,000; AID 624464; potentiation, % (concentration not given with the values); DiscoveRx D2 beta-arrestin cells, luminescence, 90 min; 100% = 57 uM dopamine signal; active = potentiation of 50% or more; inconclusive = 30% to 50%; inactive = 30% or less;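 further: compound concentration not given in the record; tested on top of an EC20 dose of dopamine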
#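 D2 cells co-treated with compound plus 50 nM dopamine (EC20) for 90 min at 37 deg C to detect potentiation. Beta-arrestin recruitment was read as enzyme-fragment luminescence after 1 h at ambient temperature. Full response was set by 57 uM dopamine.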
# PINK1 expr mod: PINK1 expression modulation; hit rate 0.2% among 410,000; AID 624263; PINK1 immunofluorescence, high-content cytometry, 24 h; Potency, µM (top dose mostly 76.6 µM), inactives show at the highest dose activation (PINK1 increase), usual class: activators; active = well fitted activation curve with a large enough effect; inconclusive = small, poorly fitted or top-dose-only effect; inactive = flat fitted curve, though single readings scatter; cell line not stated here;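 further: potency means the concentration at half of the fitted maximal effect; % of control where 0% means no effect; nearly all actives have a fitted effect of over 65% in size; a mitochondrial uncoupler was the plate control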
#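 Cells are seeded, rested 12 hours, then given compound at five concentrations or DMSO for 24 hours. After fixation, blocking and antibody staining, PINK1 amount and mitochondrial localization are scored; CCCP serves as control.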
# TRPML1 agonist: human mucolipin-1 channel agonism | TRPML1-expressing cells, Ca2+ dye fluorescence, FDSS; host cell line not named in the record; reference of the full effect not given here | activation, % (concentration not given with the values) | hit rate 0.12% among 410,000; in the data active = activation above about 50%; inconclusive = about 30% to 50%; inactive = below about 30%; further: 0% is about no effect; the text of the record puts the active cut at 80%
#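 TRPML1-DL cells, Tet-induced overnight (~16 h, 37 degrees C), loaded 45-90 min at room temperature with Ca8 no-wash calcium dye plus quencher. FDSS fluorescence: 10 s baseline, compound pin-transfer, 110 s agonist read, then EC80 54-4 (4uM final) and 110 s antagonist read.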
# Six1-Eya2 inh: Six1/Eya2 interaction inhibition; activity change, % (concentration not given with the values); Q15475+O00167; hit rate 0.56% among 360,000; AlphaScreen GST-Six1/His-Eya2 binding, biochemical; active compounds read low; control for the full effect not named in the record; in the data active = activity change below about -65%; inconclusive = about -30% to -65%; inactive = above about -30%; further: on the % scale 0 is the no-effect control and ±100 the full control effect
# Target sequence (O00167 whole entry, looked up): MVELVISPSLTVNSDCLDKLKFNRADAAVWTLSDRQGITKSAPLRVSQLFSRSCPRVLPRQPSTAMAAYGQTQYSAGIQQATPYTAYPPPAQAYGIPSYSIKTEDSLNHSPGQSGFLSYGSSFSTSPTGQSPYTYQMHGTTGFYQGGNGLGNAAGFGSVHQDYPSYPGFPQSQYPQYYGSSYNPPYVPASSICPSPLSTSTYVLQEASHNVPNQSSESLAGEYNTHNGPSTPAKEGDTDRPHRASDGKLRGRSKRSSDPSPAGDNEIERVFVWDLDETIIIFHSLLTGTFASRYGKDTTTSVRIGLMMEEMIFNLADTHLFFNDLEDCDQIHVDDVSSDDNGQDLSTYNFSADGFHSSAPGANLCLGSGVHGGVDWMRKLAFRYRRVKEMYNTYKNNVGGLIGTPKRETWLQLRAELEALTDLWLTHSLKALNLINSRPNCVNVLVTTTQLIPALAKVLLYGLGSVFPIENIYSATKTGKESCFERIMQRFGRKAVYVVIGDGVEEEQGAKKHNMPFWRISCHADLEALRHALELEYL
# Target sequence (Q15475 whole entry, looked up): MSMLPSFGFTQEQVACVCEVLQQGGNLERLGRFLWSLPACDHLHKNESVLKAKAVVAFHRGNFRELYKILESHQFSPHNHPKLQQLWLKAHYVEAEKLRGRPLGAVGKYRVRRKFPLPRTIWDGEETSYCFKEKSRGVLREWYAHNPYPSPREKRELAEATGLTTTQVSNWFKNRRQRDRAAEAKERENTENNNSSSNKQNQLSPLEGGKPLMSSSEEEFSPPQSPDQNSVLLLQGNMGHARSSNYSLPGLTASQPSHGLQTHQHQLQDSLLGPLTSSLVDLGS
#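 Six1/Eya2 binding was read as AlphaScreen signal after compounds were pinned into GST-Six1 plus His-tagged Eya2 (5X stock 250/500 nM) in pH 8.0 Tris/NaCl/TCEP buffer, beads added, then incubated 1 h, 37 C, dark.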
# TRPML1 inh: inhibitors of human TRPML1 channel; hit rate 0.02% among 390,000; activity change, negative = inhibition, % (test concentration not listed); Q9GZU1; TRPML1-inducible cells, Ca2+ dye fluorescence, FDSS; active compounds read low; inhibition of EC80 agonist-evoked calcium signal; AID 624415; in the data active means activity change below about -50%; inconclusive means about -30% to -50%; inactive means above about -30%;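 further: stimulus is agonist 54-4 at its EC80 concentration; on the % scale 0 is the no-effect control and ±100 the full control effect; compound concentration not given in the record; the text of the record puts the active cut at -80%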
#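 Tet-induced TRPML1-DL cells loaded with Ca8 no-wash calcium dye were read kinetically on FDSS. Compound addition was followed by EC80 agonist 54-4 (4 uM final); inhibition was read over 110 s.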
# The depositor's hits bear a star; ? = inconclusive; . = no result given; [ ] = remark or other dose.
SMILES,D2 ag,D2 potentiator,PINK1 expr mod,TRPML1 agonist,Six1-Eya2 inh,TRPML1 inh
O=C(Nc1nc(-c2ccccc2)cs1)NC1CCCCC1,4.2,10,4.4%[38.3 µM],2.6,-1,29
O=C1CCC(=O)N1CNc1ccc(Oc2ccccc2)cc1,-0.1,-3,?,1.2,-14,1
O=c1cc(CSc2nnnn2-c2ccccc2)nc2nc[nH]n12,-4.4,-3,1.2%,0.2,-3,38
Cc1ccc(N2C(=O)CC(Sc3ncccn3)C2=O)cc1C (configuration not stated),-0.8,-6,-1.3%,.,21,.
COc1ccc(-n2ncc3c2ncn2nc(-c4ccc(Cl)cc4Cl)nc32)cc1,.,.,1.3%,0.6,.,21
CCCNC(=O)C1(C)CCN(Cc2ccc(-c3ccccc3)o2)C1 (configuration not stated),-5.0,-14,3.1%,-0.5,-23,.
N=P(N1CCOCC1)(N1CCOCC1)C12CC3CC(CC(C3)C1)C2,-0.5,-2,2.4%,-0.9,-4,0
CC(=O)c1ccc(S(=O)(=O)NCC2(N3CCOCC3)CCCCC2)cc1,-4.1,-7,-0.4%,-0.9,-3,-2
CCCCCC(=O)Nc1cc(S(=O)(=O)N2CCOCC2)ccc1N1CCCCC1,0.7,11,-1.7%,2.7,-1,0
COc1ccc(-c2nc3ccccc3n2CCC(C)C)cc1OC,1.4,-19,5.3%,1.1,-6,22

# Next section, starting with the last four of the part before.
SMILES,D2 ag,D2 potentiator,PINK1 expr mod,TRPML1 agonist,Six1-Eya2 inh,TRPML1 inh
N=P(N1CCOCC1)(N1CCOCC1)C12CC3CC(CC(C3)C1)C2,-0.5,-2,2.4%,-0.9,-4,0
CC(=O)c1ccc(S(=O)(=O)NCC2(N3CCOCC3)CCCCC2)cc1,-4.1,-7,-0.4%,-0.9,-3,-2
CCCCCC(=O)Nc1cc(S(=O)(=O)N2CCOCC2)ccc1N1CCCCC1,0.7,11,-1.7%,2.7,-1,0
COc1ccc(-c2nc3ccccc3n2CCC(C)C)cc1OC,1.4,-19,5.3%,1.1,-6,22
Cc1cc(C)cc(NC(=O)CNS(=O)(=O)c2ccc3nc(C)sc3c2)c1,.,.,-1.0%,3.9,.,-3
CCCN1C(=O)c2ccccc2NC1c1ccc(OC)c(CSc2ccccn2)c1 (configuration not stated),-0.8,-4,0.2%,2.8,3,-7
CCN(CC)C(=O)Cn1nnc2sc(-c3ccccc3)cc2c1=O,.,.,2.5%,2.4,.,25
CCOC(=O)c1ccc(NC(=O)c2nc[nH]c2C(=O)NCc2ccccc2)cc1,0.8,-1,3.9%,-0.4,4,25
CC(=O)NNc1cc(=O)c2c(=O)n(C)c(=O)n(C)c2[nH]1,-3.5,14,-0.4%,-1.0,7,0
CC(=O)NC(C)c1nc2ccccc2n1CC(=O)NC(C)CCc1ccccc1 (configuration not stated),-0.6,-1,0.7%,-0.3,-3,10
Cc1ccccc1-n1c(SCC(=O)NCc2cccs2)nnc1-c1ccncc1,-4.4,-5,0.4%,0.8,-1,9
CCOc1ccc(S(=O)(=O)Nc2ccc3c(c2)n(C)c(=O)n3C)cc1,6.9,3,2.5%,1.7,6,14
CCc1ccc(NC(=O)Cn2ccn(-c3ccc(OC)cc3)c(=O)c2=O)cc1,.,.,-0.1%,1.3,.,-20
COC(=O)N[C@H](CC(C)=O)c1cccc(C(F)(F)F)c1,-2.3,-13,0.2%,0.1,8,6
CCOC(=O)c1[nH]c(C)c(C(=O)OCc2c(C)noc2C)c1C,0.7,2,3.8%,1.4,10,3
CCOC(=O)c1sc2ncn(CC(=O)Nc3cccc(C)c3)c(=O)c2c1C,.,.,0.4%,-0.5,.,5
C#CCOc1ccccc1/C=C1/C(=O)ON=C1C,-1.8,-3,8.4%,1.0,1,8
CCc1ccccc1N1C(=O)CN(S(=O)(=O)CC)CC1(C)C(=O)NC1CCCCC1 (configuration not stated),.,.,-0.2%,1.1,.,-19
CC1CC(C)CN(C(=O)C(C)N(C)CC(=O)Nc2ccc(F)cc2)C1 (configuration not stated),2.5,-6,-2.1%,-0.1,-2,19
CCOc1ccccc1C(=O)OCC(=O)NCCNC(=O)COC(=O)c1ccccc1OCC,-6.5,-21,5.0%,-0.5,1,-13
COc1ccc(-c2cc(=O)[nH][nH]2)cc1OC,0.0,-9,6.9%[38.3 µM],3.4,-1,15
COc1ccc(S(=O)(=O)N(CC(=O)NCc2ccncc2)c2ccc(C)cc2)cc1Br,-0.8,-4,2.0%,0.9,-8,-11
NN1C(=O)NC(c2ccccc2)(c2ccccc2)C1=O,-4.0,-3,0.6%,-0.3,0,-7
Cc1sc(NC(=S)NC(=O)CCc2ccccc2)c(C(N)=O)c1C,1.6,-1,9.4%,0.0,0,8
CCOc1ccc(CCNC(=O)C2CC(C)=CCC2C(=O)O)cc1OCC (configuration not stated),-0.4,-5,3.2%,0.5,-8,20
CCn1ccnc1CN1CCCC(C(=O)c2ccc3c4c(cccc24)CC3)C1 (configuration not stated),0.0,-14,?,0.3,-9,6
O=C(Nc1ccc2nc(-c3ccco3)c(-c3ccco3)nc2c1)N1CCCCCC1,4.6,18,?,-0.1,?,-5
c1nc(N2CCCCCC2)c2[nH]cnc2n1,-30,-7,-0.4%,-0.4,1,3
CN(C)CCOc1ccc2ccccc2c1,-5.6,-19,0.9%,0.3,1,-3
CCCOc1ccc(N2C(=O)CC(N(CCc3ccccc3)C(=O)c3ccccc3)C2=O)cc1 (configuration not stated),0.6,-1,1.1%,-0.4,9,3
CCOC1=NN(c2ccc(Cl)cc2)C(=O)/C1=C\N(C)C,-0.4,-6,2.5%,-0.2,-1,4
CCc1nnc2n1N=C(c1ccc(Br)cc1)CS2,-15,-12,1.2%,-0.2,-6,-9
O=C(O)c1ccc2c(c1)C(=O)N(Cc1ccco1)C2=O,-4.1,0,-1.1%,-0.2,24,-3
CCOC(=O)c1ccc(NC(=O)CSc2nnc(-c3cccs3)n2CC)cc1,0.0,-2,6.5%[38.3 µM],0.6,2,-9

# Record cards, from the list above:
# Profile of `COc1ccc(-n2ncc3c2ncn2nc(-c4ccc(Cl)cc4Cl)nc32)cc1` : D2 ag: .; D2 potentiator: .; PINK1 expr mod: 1.3%; TRPML1 agonist: 0.6; Six1-Eya2 inh: .; TRPML1 inh: 21
# Profile of `CCOc1ccc(CCNC(=O)C2CC(C)=CCC2C(=O)O)cc1OCC` (configuration not stated) : D2 ag: -0.4; D2 potentiator: -5; PINK1 expr mod: 3.2%; TRPML1 agonist: 0.5; Six1-Eya2 inh: -8; TRPML1 inh: 20
# Profile of `Cc1ccc(N2C(=O)CC(Sc3ncccn3)C2=O)cc1C` (configuration not stated) : D2 ag: -0.8; D2 potentiator: -6; PINK1 expr mod: -1.3%; TRPML1 agonist: .; Six1-Eya2 inh: 21; TRPML1 inh: .

# Remaining list, next part:
SMILES,D2 ag,D2 potentiator,PINK1 expr mod,TRPML1 agonist,Six1-Eya2 inh,TRPML1 inh
COc1ccccc1C1(CC(=O)O)CCOC(C)(C)C1 (configuration not stated),-0.3,-12,-1.0%,-0.7,-6,20
OCCN1CCN(c2ncnc3c2ncn3[C@H]2CN(Cc3ccc4c(c3)OCO4)C[C@@H](CO)O2)CC1,-7.5,-8,3.0%,-0.1,-3,1
CC1C(C)C(O)(c2ccccc2)CCN1C (configuration not stated),0.3,-14,0.0%,0.4,6,31
CC(C)(C)c1ccc(COc2ccsc2C(=O)O)cc1,0.3,2,-0.1%,0.1,3,23
Cc1ccc(NC(=O)Nc2c(C)n(C)n(-c3ccccc3)c2=O)c(Cl)c1,.,.,-0.7%,-0.4,.,3
C=CCNC(=O)CN(c1cccc(Br)c1)S(C)(=O)=O,-3.4,14,-0.5%,-0.4,1,-16
NC(=S)COc1ccccc1,-6.7,-7,-0.3%,0.0,12,10
CCCNc1c(NC(=O)c2ccc(OCCC)cc2)c(=O)oc2ccccc12,.,.,-0.2%,0.5,.,-5
COc1cc(C(=O)OC(C)CN2CCCCC2)cc(OC)c1OC (configuration not stated),-7.6,-5,1.1%,0.6,2,16
Cc1ccc(C)c(S(=O)(=O)Nc2ccc(-n3cnnn3)cc2)c1,0.4,-8,-2.0%,1.1,-4,12
CCOC(=O)[C@H]1[C@H]2COc3cc(OC)ccc3[C@@H]2N2C(=O)c3ccc(C)cc3NC(=O)[C@@]12C,-1.5,-8,-1.5%,3.1,-3,35
O=C(Nc1ccc(SC(F)F)cc1)C1=COCCO1,-1.8,-5,?,0.6,-10,-7
Cc1c(OCC(=O)NCc2ccccn2)ccc2c(-c3ccccc3)cc(=O)oc12,-4.7,-12,0.4%,.,1,.
CCOCCCNC(=O)/C(C#N)=C/c1cc(C)c(O)c(C)c1,1.9,10,17%,4.2,-2,-6
Cc1ccccc1-c1nc(-c2ccc(NC(=O)c3ccc4c(c3)OCO4)cc2)no1,-1.2,-11,.,-0.4,-1,-14
Cc1ccc(NC(=O)Cn2cc3c(n2)CCC(C)C3)cc1 (configuration not stated),5.7,0,4.2%,0.8,3,-3
CSc1nc2nccc(-c3ccc4c(c3)OCO4)n2n1,-16,10,0.2%,4.6,-27,-23
Cc1ccc(C2=NC(C)(C)NC2=O)cc1,3.8,3,-2.0%,0.1,7,9
Cn1nnnc1SCc1cc(=O)[nH]c2ccccc12,-5.0,-3,-1.4%,-0.9,2,-2
CCn1c(=O)cc(SCC(=O)NCc2ccc(Cl)cc2)c2ccccc21,.,.,5.5%,-0.5,.,-2
CC[n+]1cccc(-c2nc3ccccc3s2)c1,-4.7,-2,0.2%,1.6,2,-13
CCC(C)C(=O)Nc1nnc(SCC(=O)Nc2ccccc2F)s1 (configuration not stated),-2.0,-9,2.7%,2.6,5,11
S=C(NCc1ccc(Cl)cc1Cl)Nc1ccccc1,-2.3,-4,?,-0.3,-4,20
Cc1nc(SCC(=O)N(C)C2CCS(=O)(=O)C2)c(C#N)c(C)c1C (configuration not stated),0.2,-2,-0.4%,0.1,2,-2
O=c1c(Cc2c(F)cccc2Cl)c(O)ccn1C1CC1,-1.6,-5,-1.1%,0.0,5,-6
C=CC(C)(O)CCC=C(C)C (configuration not stated),-8.1,-2,1.8%,-0.1,8,6
CN(C)C(=O)c1ccc(-c2cc3onc(-c4ccccc4)c3c(=O)n2C)cc1,1.0,-6,4.7%,-0.2,-1,-9
CC(C)(C)OC(=O)N[C@@H](C(=O)OC(C)(C)C)c1ccccc1,-5.8,-9,1.8%,1.5,7,26
COc1ccc(C(=O)N2CC3(CC(c4ccc(Cl)cc4)=NO3)C[C@H]2C(=O)NCC(N)=O)cc1 (some centres not stated),-0.8,-12,2.7%,-0.2,-5,26
CC(C)CCN1C(=O)c2ccccc2C1C(=O)NCc1cccnc1 (configuration not stated),-1.3,-9,2.3%,-0.1,9,0

# Bioassay records (PubChem BioAssay)
